Screening data as filed in PubChem.
Polio RdRp inh: poliovirus RNA polymerase inhibition. AID 588519. 150,000 tested, 0.66% active. poliovirus polymerase elongation, fluorescence polarization; active compounds read low. % elongation, % (compound at 16.7 µg/mL). P03300; in the data active = % elongation below about 90%; also: some results filed as inactive read as strong as hits
Target sequence (P03300 1749-2209 limits assumed): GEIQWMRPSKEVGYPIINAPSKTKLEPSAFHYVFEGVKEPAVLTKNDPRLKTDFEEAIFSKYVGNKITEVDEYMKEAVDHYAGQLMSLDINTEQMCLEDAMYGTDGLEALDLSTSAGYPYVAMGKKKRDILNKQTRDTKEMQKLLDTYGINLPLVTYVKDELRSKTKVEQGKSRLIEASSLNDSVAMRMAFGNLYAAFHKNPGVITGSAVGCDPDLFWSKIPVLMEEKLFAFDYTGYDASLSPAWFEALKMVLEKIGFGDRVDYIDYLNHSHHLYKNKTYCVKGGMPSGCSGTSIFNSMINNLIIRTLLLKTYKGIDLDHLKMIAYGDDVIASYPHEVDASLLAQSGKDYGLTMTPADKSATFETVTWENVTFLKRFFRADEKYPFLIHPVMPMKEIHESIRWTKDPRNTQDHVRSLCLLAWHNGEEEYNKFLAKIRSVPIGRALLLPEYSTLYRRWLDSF
Polio RdRp inh intensity: recorded beside Polio RdRp inh, whose call it bears; % elongation; measured here: total intensity read-out; formula for this scale not given here;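 total fluorescence in place of polarization; lower means less elongation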
* = called active by the depositor. The list is partial; count on the stated rates, not on these rows.

SMILES	Polio RdRp inh	Polio RdRp inh intensity
COc1ccc(-c2cc(=O)n3[nH]cnc3n2)cc1	109	112
Cc1cccc(OC(=O)c2snnc2C)c1	100	99
COc1ccccc1NC(=O)Cn1c(=O)n(Cc2nc(-c3ccccc3)no2)c(=O)c2ccccc21	107	107
Cc1cccc(-c2nc(CN3C(=O)CN=C(c4ccccc4)c4ccccc43)c(C)o2)c1	101	103
CCOCCOC(=O)c1ccc2c(c1)N(Cc1ccccc1C#N)C(=O)c1ccccc1S2(=O)=O	105	106
O=C(O)c1cccnc1SCc1cccc(Cl)c1	110	110
COc1ccc(N(CC(=O)N2CCN(c3cc(C)ccc3C)CC2)S(=O)(=O)c2c(C)noc2C)cc1	110	113
CCc1ccc2c(c1)c(=O)c(C(=O)c1ccc(C)cc1)cn2CC(=O)Nc1ccc2c(c1)OCCO2	104	105
Cc1ccc(C)c(N2CCN(c3ncnc4onc(C)c34)CC2)c1	111	111
CCc1nn(CC(=O)NCc2ccccc2)c(=O)c2cccn12	107	111
Cc1ccc2nc(Cl)c3cc(C(=O)N4CCCC(C)C4)sc3c2c1 (stereo not given)	101	103
CCc1ccc(OCC(=O)Nc2cc(-c3nc4cc(C)ccc4o3)ccc2C)cc1	104	106
Cc1ccc(CCNC(=O)C(NS(=O)(=O)c2ccc3c(c2)oc(=O)n3C)C(C)C)cc1 (stereo not given)	104	105
Cc1c(C(=O)N(Cc2cccc(Cl)c2)Cc2ccco2)oc2ccccc12	104	103
O=C(COc1ccccc1F)Nc1nnc(S(=O)(=O)N2CCCCCC2)s1	112	108
CCCNC(=O)N1CCN(S(=O)(=O)c2ccc3c(ccn3C)c2)CC1	103	112
Cc1cccc(C)c1NS(=O)(=O)c1ccc(NS(=O)(=O)c2ccc3c(c2)OCCO3)cc1	108	101
CCn1cc(C(=O)N2CCN(c3cccc(C)c3C)CC2)c2cc(OC)c(OC)cc2c1=O	101	98
CCOc1ccccc1CNC(=O)CCc1c(C)nn(-c2ccc(N3CCCC3)nn2)c1C	100	107
CCCCN(CC)CCNC(=O)c1nn(-c2ccc(OC)cc2)c(=O)c2c1c1ccccc1n2C	113	114
CCOc1ccccc1NC(=O)N1CCC(N2CCN(Cc3ccccc3)C(=O)C2=O)CC1	107	102
CCOc1ccc(S(=O)(=O)c2cn(Cc3cc(C)ccc3C)c3ccc(OCC)cc3c2=O)cc1	103	104
Cc1ccc(C)c(-c2[nH]c3c(c2-c2c(-n4cccc4)n(C)c(=O)[nH]c2=O)c(=O)[nH]c(=O)n3C)c1	104	108
Cc1c(C)n(Cc2ccccc2)c2ccc(C(=O)NCc3ccc(OC(C)C)cc3)cc12	102	95

Exported in markdown: 5 of the compounds above
| Structure | Polio RdRp inh | Polio RdRp inh intensity |
| --- | --- | --- |
| Cc1ccc(CCNC(=O)C(NS(=O)(=O)c2ccc3c(c2)oc(=O)n3C)C(C)C)cc1 (stereo not given) | 104 | 105 |
| CCOc1ccccc1NC(=O)N1CCC(N2CCN(Cc3ccccc3)C(=O)C2=O)CC1 | 107 | 102 |
| CCCCN(CC)CCNC(=O)c1nn(-c2ccc(OC)cc2)c(=O)c2c1c1ccccc1n2C | 113 | 114 |
| Cc1cccc(OC(=O)c2snnc2C)c1 | 100 | 99 |
| CCc1ccc(OCC(=O)Nc2cc(-c3nc4cc(C)ccc4o3)ccc2C)cc1 | 104 | 106 |

(listing goes on)
SMILES	Polio RdRp inh	Polio RdRp inh intensity
COc1ccc(NC(=O)CC2C(=O)N(c3ccc(OC)cc3)C(=O)N2Cc2ccc(OC)c(OC)c2)cc1 (stereo not given)	107	108
COc1ccc(NC(=O)c2ccc3nc(CCc4ccccc4)oc3c2)c(OC)c1	113	106
COCCCNC(=O)C1CCN(Cc2cc3ccccc3n2Cc2cccc(C)c2)CC1	103	106
COc1ccc(C2C(C(=O)Nc3ccccc3)=C(C)Nc3nc(SCC(=O)c4ccc(C)cc4)nn32)cc1 (stereo not given)	99	100
CCNS(=O)(=O)c1cc(-c2nnc(Nc3cccc(C(F)(F)F)c3)c3ccccc23)ccc1C	106	112
N#Cc1ccc(C(=O)Nc2ccc3c(c2)N(C2CCCC2)C(=O)c2ccccc2S3)cc1	111	108
CCc1ccc(-c2nc(SCC(=O)NCCOC)c(-c3ccc(C)cc3)[nH]2)cc1	108	108
Cc1ccc(-n2c3c(cc(C(=O)Nc4ccccc4C(N)=O)c2=O)C(=O)CC(C)(C)C3)cc1	111	109
O=C(NCc1ccccc1)C1CCN(c2ncnc3c2nc2n3CCCCC2)CC1	109	111
CCCC(=O)Nc1nnc(S(=O)(=O)N(C)Cc2ccc(Cl)cc2)s1	106	111
CCc1ccc(-c2nc(CN3CCC(C(=O)NCCc4ccc(C)cc4)CC3)c(C)o2)cc1	112	110
Cc1cc2c(cc1C)C(c1cccc(OC(C)C)c1)CC(=O)N2 (stereo not given)	110	115
CCOc1ccccc1NC(=O)CCc1c(C)nn(-c2ccc(N3CCCCC3)nn2)c1C	97	104
Cc1ccc(OCC(O)Cn2c(=N)n(CCN3CCCCC3)c3ccccc32)cc1 (stereo not given)	108	107
COc1ccc(NC(=O)C(C)N(c2ccccc2)S(C)(=O)=O)cc1 (stereo not given)	102	108
COc1ccc(NC(=O)CN2C(=O)CSc3ccc(S(=O)(=O)N(C)C)cc32)cc1OC	99	110
CCCC(=O)N(c1ccc2oc(-c3ccccc3)c(C(=O)OCC)c2c1)S(=O)(=O)c1ccc(C)cc1	104	95
Cc1ccc(C)c(N2CCN(C(=O)C(CC(C)C)NS(=O)(=O)c3ccc4nc(C)sc4c3)CC2)c1 (stereo not given)	113	109
Cc1ccc(C(=O)N2CCN(c3ccccc3F)CC2)cc1NC(=O)c1nsc2ccccc12	103	107
O=c1n(Cc2ccc(Cl)cc2)nc2n1-c1ccccc1OC2	105	107
CCc1nnc2c(N3CCN(c4cccc(C(F)(F)F)c4)CC3)nc3ccccc3n12	103	99
CCOC(=O)c1cc(OC(=O)c2ccc(Cl)cc2)n(-c2ccccc2)n1	104	105
CCOc1ccc(OCC(=O)NCCS(=O)(=O)N2CCN(c3cccc(Cl)c3)CC2)cc1	103	108
CC(C)(C)OC(=O)N1CCC(c2c(C(=O)N3CCCCC3)cnn2-c2ccccc2Cl)CC1	108	103

Grouped by structure: the compounds so far with fluorine.
SMILES	Polio RdRp inh	Polio RdRp inh intensity
O=C(COc1ccccc1F)Nc1nnc(S(=O)(=O)N2CCCCCC2)s1	112	108
CCNS(=O)(=O)c1cc(-c2nnc(Nc3cccc(C(F)(F)F)c3)c3ccccc23)ccc1C	106	112
Cc1ccc(C(=O)N2CCN(c3ccccc3F)CC2)cc1NC(=O)c1nsc2ccccc12	103	107
CCc1nnc2c(N3CCN(c4cccc(C(F)(F)F)c4)CC3)nc3ccccc3n12	103	99

Another view of five compounds above.
SMILES | Polio RdRp inh | Polio RdRp inh intensity
Cc1ccc(C(=O)N2CCN(c3ccccc3F)CC2)cc1NC(=O)c1nsc2ccccc12 | 103 | 107
O=c1n(Cc2ccc(Cl)cc2)nc2n1-c1ccccc1OC2 | 105 | 107
CCc1nnc2c(N3CCN(c4cccc(C(F)(F)F)c4)CC3)nc3ccccc3n12 | 103 | 99
CCOC(=O)c1cc(OC(=O)c2ccc(Cl)cc2)n(-c2ccccc2)n1 | 104 | 105
CCOc1ccc(OCC(=O)NCCS(=O)(=O)N2CCN(c3cccc(Cl)c3)CC2)cc1 | 103 | 108

The listing continues.
SMILES	Polio RdRp inh	Polio RdRp inh intensity
Cc1cc(F)ccc1NC(=O)C1CCCN(C(=O)c2cnn(-c3ccccc3)c2-n2cccc2)C1 (stereo not given)	104	105
COCCn1c(C)cc(O)c(C(c2cccc(F)c2)N2CCN(c3ccccc3)CC2)c1=O (stereo not given)	107	112
CC1=C(C(N)=O)C(c2ccc(C)cc2)n2nc(SCc3ccccc3F)nc2N1 (stereo not given)	107	111
Cn1c(=O)oc2cc(S(=O)(=O)Nc3ccccc3O)ccc21	106	102
CC1=C(C(=O)Nc2ccc(C)cc2C)C(c2ccc(O)cc2)n2nc(SCC(=O)c3ccc(C)cc3)nc2N1 (stereo not given)	103	103
CCOc1ccc(Nc2sc(C(=O)c3ccc4c(c3)OCO4)c(N)c2S(=O)(=O)c2ccc(C)cc2)cc1	107	107
COc1ccc(CCNC(=O)c2cc3sccc3n2Cc2ccc(Cl)cc2)cc1OC	108	114
COc1ccc(N2CCN(S(=O)(=O)CCNC(=O)c3cc(=O)c4ccccc4o3)CC2)cc1	107	115
CCCNC(=O)CN1C(=O)c2cccnc2Sc2ccccc21	103	105
Cc1ccc(Cl)cc1N1CCN(S(=O)(=O)c2cc(Br)cc3c2N(C(=O)C2CC2)CC3)CC1	102	104
CCOc1ccc(-n2c(=O)c3c4c(sc3n(Cc3cccc(C)c3)c2=O)CCCC4)cc1	107	112
CCC(C(=O)N1CCN(c2cc(Cl)ccc2C)CC1)n1nc(C)c2sc3ccccc3c2c1=O (stereo not given)	111	114
COc1cccc(Cn2c(SCc3ccc(C(=O)N4CCCCC4)cc3)nc3ccncc32)c1	105	104
CCOC(=O)c1c(C)oc2nc(C)nc(NCc3ccc(OC)cc3)c12	104	101
Cc1cccc(Cc2c(C)nc3nc(SCc4ccccc4Cl)nn3c2C)c1	101	103
Cc1cc(C)cc(NC(=O)C2CCCN(c3cnccn3)C2)c1 (stereo not given)	112	113
COc1ccc(CCNC(=O)Cn2ncc3c(=O)oc4ccccc4c32)c(OC)c1	106	109
CCOc1ccc(S(=O)(=O)N2CCC(N3CCN(Cc4ccc(F)cc4)C(=O)C3=O)CC2)cc1	102	109
O=C(c1ccc2c(c1)OCO2)c1cn(Cc2ccc(Cl)cc2)c2ccc(F)cc2c1=O	105	104
Cc1cccc(N(CC(=O)Nc2ccccc2C(F)(F)F)S(=O)(=O)c2ccccc2)c1C	98	99
CCOc1ccc(-c2nnc(SCC(=O)NCc3ccc(C)cc3)nc2-c2ccc(OCC)cc2)cc1	108	100
CCOc1ccc(N(Cc2ccccc2)C(=O)c2nc(S(C)(=O)=O)ncc2Cl)cc1	120	112
COc1ccc(-c2n[nH]c3c2C(c2ccc(Cl)cc2Cl)NC3=O)cc1 (stereo not given)	101	105
CCOc1cc(C(=O)N2CCc3c([nH]c4ccccc34)C2c2ccccc2)cc(OCC)c1OCC (stereo not given)	107	111

Pulled one by one from above, two records:
SMILES	Polio RdRp inh	Polio RdRp inh intensity
COc1ccc(NC(=O)CC2C(=O)N(c3ccc(OC)cc3)C(=O)N2Cc2ccc(OC)c(OC)c2)cc1 (stereo not given)	107	108
CCn1cc(C(=O)N2CCN(c3cccc(C)c3C)CC2)c2cc(OC)c(OC)cc2c1=O	101	98

(list continues)
SMILES	Polio RdRp inh	Polio RdRp inh intensity
COc1ccc2sc(N(Cc3cccnc3)C(=O)COc3ccccc3)nc2c1	108	104
CCc1cc(C(=O)Nc2c(C)nn(Cc3ccccc3Cl)c2C)no1	108	111
Cc1cccc(C)c1OCc1nc2c3c(-c4ccccc4)c(-c4ccccc4)oc3ncn2n1	105	110
CCNc1c(NC(=O)c2cc(OCC)c(OCC)c(OCC)c2)c(=O)oc2ccccc12	107	108
CC(CCc1ccccc1)NC(=O)Cn1ncc2c3ccccc3n(Cc3cccc(Cl)c3)c2c1=O (stereo not given)	116	222
COc1ccc(N2C(=O)CSC23C(=O)N(Cc2cccc(F)c2)c2ccccc23)cc1Cl (stereo not given)	104	104
O=C(CSc1cn(CC(=O)N2CCOCC2)c2ccccc12)Nc1ccccc1F	120	111
Cc1ccc(C(=O)NC2(C(F)(F)F)N=C(c3ccccc3)N(Cc3ccccc3)C2=O)cc1 (stereo not given)	111	113
Cc1cccc(C(=O)Nc2sc3c(c2C(=O)NCc2ccco2)CCCC3)c1	107	109
CCc1nn(CC(=O)NCCCOC)c(=O)c2cc3occc3n12	104	106
CC1CCN(S(=O)(=O)c2ccc3c(c2)CCN3C(=O)Nc2ccccc2Br)CC1	108	105
CCOc1ccc(OC(=O)c2cn(-c3ccc(C)cc3)c(=O)c3ccccc23)cc1	109	115
O=C1OC(C(=O)Nc2cccc(Br)c2)Cc2ccccc21 (stereo not given)	102	107
